Bioassay records as filed in PubChem BioAssay.
Env fusion inh – HIV envelope-mediated fusion inhibition; HeLa-JRFL Env/CEM21 cell fusion, luciferase; 1.1% of 360,000 active; inhibition, % at 12.3 µM;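 active = mean replicate inhibition score of at least 50 and every replicate individually at or above 50; inconclusive = only one of the two criteria met; inactive = mean below 50 and not all replicates reaching 50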;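 note: 0% = plate neutral controls and 100% = maraviroc near 300 nM; one replicate is shown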
MT1-MMP act inh – inhibitors of human MT1-MMP activation; HT1080 RFP-PRO-GFP cells, GFP/RFP ratio fluorescence, overnight; percent of plate control window, DMSO zero; P50281; AID 651647; GFP/RFP ratio change, % at 20 µM; 0.061% of 360,000 active;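 active = GFP/RFP ratio change of at least 30% with cell ATP level not reduced by more than half and red fluorescence within 50% of control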; note: strong numbers were not always called active
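Test system: HT1080 RFP-PRO-GFP cells; Benchmarks: DMSO and RFP-L50D-GFP cell wells; Timing: cells overnight before dosing, compound overnight, 37 °C, 5% CO2; Compound: one 20 µM compound dose with 1% DMSO; Read-out: GFP/RFP fluorescence ratio.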
MT1-MMP act inh RFP – also measured in MT1-MMP act inh; calls as there; RFP signal change, %; measured here: RFP expression control read;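 0 = vehicle wells; hits needed this value within 50% of zero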
An asterisk follows results filed as active; ? = inconclusive; [ ] = remark or other dose. These rows are one share of the data; rates above refer to the full screens.

SMILES	Env fusion inh	MT1-MMP act inh	MT1-MMP act inh RFP
O=C(C[C@H]1CC[C@@H]2[C@H](COC[C@H](O)CN2Cc2nccs2)O1)NCc1ccccc1Cl	-7[16.7 µM]	-3	2
O=C(O)C1C2CCC1C(O)C2 (stereo not given)	?	-1	9
OC[C@@H]1CN(CCN2CCOCC2)C[C@H](n2cnc3c(Nc4ccccc4)ncnc32)O1	-8	-1	3
CC(C)(C)n1nnnc1C(c1ccccc1)N1CCN(c2ccc(C(F)(F)F)cn2)CC1 (stereo not given)	20	-7	-10
COc1ccc(C(C(=O)Nc2c(C)cccc2C)n2c(=O)c(-c3ccco3)nc3ccccc32)cc1 (stereo not given)	21	-2	7
COc1ccc2c(c1)CCCC(Br)C2=O (stereo not given)	-19	-1	4
O=[N+]([O-])c1ccc(-c2cn(-c3ccc(Cl)cc3)cn2)cc1	-114	5	2
CCCCn1nnnc1C(c1ccccc1)N1CCN(c2ccc(OC)cc2)CC1 (stereo not given)	-27	-4	-3
COc1cc(CNc2ncnc3c2ncn3[C@H]2CN(Cc3cc(OC)c(OC)c(OC)c3)C[C@@H](CO)O2)cc(OC)c1OC	8	0	2
COc1ccc(CNC(=O)OC2CC3CC2[C@H]2CCCCN2C3=O)cc1 (stereo not given in full)	-23	4	0
COc1ccc(Cc2c(C(C)(C)C)nc3cc(C)c(Br)c(C)n23)c(C)c1	3	-1	-5
O=C1NC[C@H](CCCCN2C[C@H](Cc3ccc(O)cc3)N(Cc3ccccc3)C(=O)C2=O)N(CCc2ccc(O)cc2)C1=O	0	0	3
CCCCCCCCN1C(=O)[C@H](CC(=O)NCc2cccs2)C[C@@]2(C(=O)OCC)CCCC=C12	88*	-6	-14
COc1cc(C(=O)C(=O)N2CCC(Cc3ccccc3)CC2)cc2ccccc12	26	3	2
O=S1(=O)CC(N2CCN(Cc3ccccc3F)CC2)CN1Cc1cn(Cc2ccc(Cl)cc2)nn1 (stereo not given)	32	2	-15
Cc1ccc(S(=O)(=O)N2CCOCC2)cc1C(=O)NCCc1ccc(Cl)cc1	24	3	3
CC1(c2nc3ccccc3[nH]2)c2ccccc2C(=O)N1Cc1ccccn1 (stereo not given)	-2	3	-1
CCC(c1nc2ccccc2[nH]1)n1c(=O)c(-c2ccco2)nc2ccccc21 (stereo not given)	29	-14	0
CCC(c1nc2ccccc2[nH]1)n1c(-c2ccnc(Cl)c2)nc2ccccc21 (stereo not given)	-50	-7	2
CCNC(COC(=O)c1ccc([N+](=O)[O-])cc1)C1CCCCC1 (stereo not given)	5	2	2
COc1cc(OC)cc(C2=Cc3ccccc3C(CC(=O)c3ccco3)N2c2ccc(-c3ccc(C(N)=O)cc3)cc2)c1 (stereo not given)	40	-10	-7
CC(C)Cc1ccc(C(C)CC2=CCC(CN(C)C)C2=O)cc1 (stereo not given)	10	0	-3
CCc1ccccc1CC1CN(Cc2ccccc2)Cc2ccccc2N1c1ccc(OC)cc1 (stereo not given)	-13	-1	-5
Cc1cc(C)cc(Cn2cc(CN3CC(N4CCN(Cc5ccccc5F)CC4)CS3(=O)=O)nn2)c1 (stereo not given)	-1	7	-11
CCC(CC)C(C(=O)NCc1ccccc1)N1CCN(C(=O)C2CCCO2)CC1 (stereo not given)	-6	0	2
SMILES	Env fusion inh	MT1-MMP act inh	MT1-MMP act inh RFP
CCOC(=O)[C@]12CCCC=C1N(CCc1ccc(OC)c(OC)c1)C(=O)[C@H](CC(=O)N1CCN(C(=O)C3CC3)CC1)C2	-5	7	7
CCCCCCCCN1C(=O)[C@H](CC(=O)NCC23CC4CC(CC(C4)C2)C3)C[C@@]2(C(=O)OCC)CCCC=C12	-1	-14	-35
CN(C)CCNC(=O)c1ccc(Cl)c2cc3ccccc3nc12	-16	-9	-7
COc1ccc(C=C(C(=O)c2ccccc2)C(=O)c2ccccc2)cc1	-196	-5	-7
Cc1cccc(C)c1NC(=O)C(c1cccc2ccccc12)n1c(=O)c(-c2ccco2)nc2ccccc21 (stereo not given)	-6	-9	1
CCN(CC)C1Oc2cc3c(cc2C(c2cc(OC)c(O)c(OC)c2)C1C)OCO3 (stereo not given)	-8	-2	-7
CC1(c2nnnn2Cc2ccccc2)CCC(=O)N1CCOc1ccccc1 (stereo not given)	5	5	2
CN1CCN(C(=O)OC2CC3CC2[C@H]2CCCCN2C3=O)CC1 (stereo not given in full)	-28	4	3
Cc1onc(-c2c(F)cccc2Cl)c1C(=O)Nc1cc2cc([N+](=O)[O-])ccc2oc1=O	-11	4	2
Cc1cccc(C)c1N1C(=O)c2ccccc2NC(=O)C1C(=O)NCCc1ccccc1F (stereo not given)	23	-1	5
COc1cccc(CNC(=O)[C@@H]2CCCN2C(=O)[C@H]2CCCCN2C(=O)OC(C)(C)C)c1	-5	1	4
Cc1cc(C)c2cc(C#N)c(NCCNC(=O)c3ccccc3)nc2c1	18	13	1
O=C(Nc1cc(Cl)ccc1Cl)N1CCN(C(=O)Nc2cc(Cl)ccc2Cl)CC1	-21	4	-2
OC(c1ccccc1)(c1ccccc1)C1CCN(CCCOc2ccccc2Cl)CC1	-25	-2	-2
CCOC(=O)NC1CCc2cc(OC)c(OC)c(OC)c2-c2ccc(SC)c(=O)cc21 (stereo not given)	-181	25	3
CC(=NNC(=S)N1CCC1)c1ccccn1	-107	10	0
COc1cccc2c1C(=O)c1c(O)c3c(c(O)c1C2=O)CC(O)(C(=O)CO)CC3OC1CC(N(C)C)C(O)C(C)O1 (stereo not given)	59*	-19	52
CC1(C(=O)NCc2ccccc2)CN(S(C)(=O)=O)CC(=O)N1CCc1c[nH]c2ccccc12 (stereo not given)	9	6	7
O=C1Cc2c([nH]c3ccc(Br)cc23)-c2ccccc2N1	-164	-4	-4
CCC(=O)N1CCC(C)(C(=O)Nc2ccc3c(c2)OCCO3)C1 (stereo not given)	-32	3	3
Cc1ccc(S(=O)(=O)N2[C@@H](Cc3ccccc3)CO[C@H]2CC(=O)OCc2ccccc2)cc1	-26	-3	-13
CN1[C@@H](Cc2ccccc2)COc2cc(N3CCSCC3)ccc2S1(=O)=O	-23	5	-11
COCCNC(=O)C1(C)CCN(Cc2ccc3ccccc3c2Br)C1 (stereo not given)	1	-1	-2
NC(CSC1(c2cccc3ccccc23)c2ccccc2-c2ccccc21)C(=O)O (stereo not given)	12	1	6
CC(C)NC(=O)CN1CCN(C(c2cc3ccccc3o2)c2nnnn2C(C)(C)C)CC1 (stereo not given)	-7	0	6

3 structures out of the list, arranged by molecular weight, rising:
SMILES	Env fusion inh	MT1-MMP act inh	MT1-MMP act inh RFP
CC(=NNC(=S)N1CCC1)c1ccccn1	-107	10	0
CN(C)CCNC(=O)c1ccc(Cl)c2cc3ccccc3nc12	-16	-9	-7
CN1[C@@H](Cc2ccccc2)COc2cc(N3CCSCC3)ccc2S1(=O)=O	-23	5	-11

Other entries
SMILES	Env fusion inh	MT1-MMP act inh	MT1-MMP act inh RFP
COCCNC(=O)C1CCCN(C(=O)c2ccc(OC)c(F)c2)CC1 (stereo not given)	3	-1	-2
COC(=O)[C@@]12C[C@@H](CC(=O)N3CCN(C(=O)C4CC4)CC3)C(=O)N(Cc3ccc4c(c3)OCO4)C1=CCC(C)(C)C2	11	4	6
Cc1ccc(C)c(N2CCN(C(C(=O)NC3CCCC3)C(C)C)CC2)c1 (stereo not given)	-5	-7	-4
CCN(C)C1CN(Cc2cn(Cc3cc(C)cc(C)c3)nn2)S(=O)(=O)C1 (stereo not given)	10	5	3
CCOC(=O)[C@]12CCCC=C1N(Cc1ccc3c(c1)OCO3)C(=O)[C@H](CC(=O)NCCCOC)C2	-65	3	0
NC(=S)NN=C1C=CCCC1	3	0	3
CCCC(=O)N1CCC1(C)C(=O)NS(=O)(=O)c1ccc(C#N)cc1 (stereo not given)	-3	-2	7
CCOC(=O)[C@]12CCCC=C1N(Cc1cccc3ccccc13)C(=O)[C@H](CC(=O)NCc1ccc(OC)c(OC)c1)C2	56*	16	-29
O=c1[nH]c2cc3ccccc3cc2nc1-c1nnnn1C1CCCC1	-42	-15	-11
O=C(NCCc1ccccc1F)C1C(=O)Nc2ccccc2C(=O)N1C1CCCCC1 (stereo not given)	-14	5	7
Cn1cc([C@]2(O)C(=O)Nc3ccc(OC(F)(F)F)cc32)c2ccccc21	2	5	0
CC1(C)CC(=O)C=C(c2n[nH]nc2-c2ccccc2)C1	-1	0	1
Cc1ccc(S(=O)(=O)NN=C2C(=O)C3CCC2C3Cl)cc1 (stereo not given)	-4	1	1
CCOC(=O)[C@]12CCC=C1N(Cc1ccc3c(c1)OCO3)C(=O)[C@H](CC(=O)NCCCCc1ccccc1)C2	-70	2	-4
COC(=O)[C@]12CCCCC=C1N(Cc1ccc3c(c1)OCO3)C(=O)[C@H](CC(=O)N1CCCC1)C2	-3	6	2
CCOC(=O)[C@]12CCCC=C1N(Cc1ccc3c(c1)OCO3)C(=O)[C@H](CC(=O)NCCC(C)C)C2	-68	1	-1
C=CCNC(=O)c1cc(-c2ccccc2)sc1N	4	-3	-1
CCOC(=O)C(=C1Nc2ccccc2N1)n1c(-c2cnccn2)nc2ccccc21	26	0	6
N#Cc1ccc(C(C(=O)NC2CCCCC2)n2c(=O)c(-c3ccco3)nc3ccccc32)cc1 (stereo not given)	17	-6	6
COc1ccc(-c2c(C(=O)c3ccccc3)[nH]c(N)c2C(=O)c2ccccc2)cc1OC	-61	2	-5
COC(=O)C[C@H]1CC[C@H](NC(=O)Nc2ccccc2OC)[C@@H](CO)O1	-25	4	2
COc1ccc(NC(=O)c2cc(-c3sc(NC(=O)c4ccccc4)nc3C)n(CCO)n2)cc1	-3	-1	0
CCOC(=O)C[C@@H]1OC[C@H](Cc2ccccc2)N1S(=O)(=O)c1ccc(C)cc1	5	2	-3
COc1cc(OC)cc(-c2c(Sc3ccccc3)c3cc(-c4ccc(OC)c(OC)c4)ccc3n2C)c1	-7	-2	0
Cc1cccc(C)c1-n1nnnc1C1(C)CCC(=O)N1C1CC1 (stereo not given)	19	1	3
SMILES	Env fusion inh	MT1-MMP act inh	MT1-MMP act inh RFP
COc1ccc(CN2C(=O)C(CC(=O)NCCc3ccccn3)CC(C(=O)N3CCCCCC3)=C2C)cc1 (stereo not given)	27	7	8
COC(=O)C[C@@H]1C=C[C@@H](NC(=O)C2CCC2)[C@@H](CO)O1	?	-2	5
Cc1c(CCCl)c(Cl)n2c(nc3ccccc32)c1C#N	-393	-29	-33
CC(=O)Nc1ccccc1-c1cccc2nccn12	3	1	4
CC(C)C[C@@H](COCc1ccc(Cl)cc1)N1CCN(C(=O)c2ccc(C(F)(F)F)cc2)CCC1=O	40	-3	-15
O=C(C(=O)N1CCN(c2ccccc2)CC1)c1cccc(Br)c1	3	3	7
CN1CCN(C2CN(Cc3cn(Cc4ccc(Cl)cc4)nn3)S(=O)(=O)C2)CC1 (stereo not given)	-38	-1	0
Cc1ccc(OCc2nc3ccccc3n2C(C(=O)NC(C)(C)C)c2ccncc2)cc1 (stereo not given)	32	-8	-5
CC(C)(C)C(C(=O)NCc1ccccc1)N1CCN(C(=O)C2CCCO2)CC1 (stereo not given)	5	0	4
CCCCCCCCCc1conc1C(=O)/C=C/c1ccco1	-19	1	0
Cc1ccc(S(=O)(=O)N2C3CCCCC3O[C@H]2CC(=O)c2ccccc2)cc1 (stereo not given in full)	-4	3	-3
CCCCn1nnnc1C(c1ccccc1)N1CCN(C(C)=O)CC1 (stereo not given)	15	3	4
CCc1c(-c2ccccc2OC)ncn1Cc1cccc(-c2ccccc2)c1	22	8	-30
COc1ccc([C@H]2CC(=O)C[C@@H](CCn3cc(C)nn3)O2)cc1	28	1	-1
OCCNc1ncnc2c1ncn2[C@H]1CN(Cc2ccc3c(c2)OCO3)C[C@@H](CO)O1	-1	0	3
CC1(c2nnnn2-c2ccc3c(c2)OCCO3)CCC(=O)N1CCc1c[nH]c2ccccc12 (stereo not given)	2	2	2
CC(=O)Nc1ccc(S(=O)(=O)NN=Cc2ccc(Cl)c(Cl)c2)cc1	-10	-1	3
CN(C)CCN1CCN(C2CN(Cc3cn(Cc4cccc(Cl)c4)nn3)S(=O)(=O)C2)CC1 (stereo not given)	-29	3	6

Reprinted at random: 7 records from the list, in no set order.
SMILES	Env fusion inh	MT1-MMP act inh	MT1-MMP act inh RFP
COc1cc(OC)cc(C2=Cc3ccccc3C(CC(=O)c3ccco3)N2c2ccc(-c3ccc(C(N)=O)cc3)cc2)c1 (stereo not given)	40	-10	-7
Cc1cccc(C)c1-n1nnnc1C1(C)CCC(=O)N1C1CC1 (stereo not given)	19	1	3
CCOC(=O)[C@]12CCCC=C1N(CCc1ccc(OC)c(OC)c1)C(=O)[C@H](CC(=O)N1CCN(C(=O)C3CC3)CC1)C2	-5	7	7
CC(C)(C)C(C(=O)NCc1ccccc1)N1CCN(C(=O)C2CCCO2)CC1 (stereo not given)	5	0	4
COc1ccc(CNC(=O)OC2CC3CC2[C@H]2CCCCN2C3=O)cc1 (stereo not given in full)	-23	4	0
CC(=O)Nc1ccc(S(=O)(=O)NN=Cc2ccc(Cl)c(Cl)c2)cc1	-10	-1	3
COCCNC(=O)C1CCCN(C(=O)c2ccc(OC)c(F)c2)CC1 (stereo not given)	3	-1	-2
